MenB inh: blocks the Mycobacterium tuberculosis MenB enzyme. hit rate 0.43% among 100,000. inhibition, %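 (about 12 µg/mL by stock and volumes)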. MenB enzyme assay, absorbance read-out; some hits fall short of the stated cut. AID 540299;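 active = mean of two replicates above 30%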;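 note: 0% = no compound and 100% = wells with inactive enzyme; the first replicate is given; strong numbers were not always called active; inactives centre near -10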
Target sequence (P9WNP5 whole entry, looked up): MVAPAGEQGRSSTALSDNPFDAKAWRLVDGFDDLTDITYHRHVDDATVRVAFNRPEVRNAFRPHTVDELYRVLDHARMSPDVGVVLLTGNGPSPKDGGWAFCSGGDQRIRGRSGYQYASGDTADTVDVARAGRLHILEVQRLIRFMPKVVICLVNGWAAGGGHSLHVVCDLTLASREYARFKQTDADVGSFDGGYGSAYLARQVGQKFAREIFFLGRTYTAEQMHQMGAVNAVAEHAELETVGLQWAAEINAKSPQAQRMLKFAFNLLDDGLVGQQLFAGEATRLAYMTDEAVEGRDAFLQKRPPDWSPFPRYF
Polio RdRp inh: poliovirus RNA polymerase inhibition | P03300 | poliovirus polymerase elongation, fluorescence polarization; active compounds read low | % elongation, % (compound at 16.7 µg/mL) | hit rate 0.66% among 150,000 | AID 588519; in the data active = % elongation below about 90%; note: some results filed as inactive read as strong as hits
Target sequence (P03300 1749-2209 limits assumed): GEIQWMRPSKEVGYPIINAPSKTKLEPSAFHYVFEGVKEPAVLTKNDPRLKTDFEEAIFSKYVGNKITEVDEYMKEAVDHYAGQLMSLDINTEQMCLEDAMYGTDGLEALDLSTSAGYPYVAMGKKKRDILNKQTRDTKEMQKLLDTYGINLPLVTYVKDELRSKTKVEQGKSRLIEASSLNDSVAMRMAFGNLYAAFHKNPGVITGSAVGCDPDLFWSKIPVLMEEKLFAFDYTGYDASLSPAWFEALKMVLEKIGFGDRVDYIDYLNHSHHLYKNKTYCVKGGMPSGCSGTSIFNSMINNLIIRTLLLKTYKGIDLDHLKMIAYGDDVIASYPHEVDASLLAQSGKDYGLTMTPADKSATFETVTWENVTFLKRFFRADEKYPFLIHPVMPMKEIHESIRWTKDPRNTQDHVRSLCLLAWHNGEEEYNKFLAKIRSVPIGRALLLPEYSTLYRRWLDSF
Mtb MbtI inh: blocks the Mycobacterium tuberculosis siderophore enzyme MbtI. hit rate 0.89% among 100,000. AID 493033. inhibition, %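 (about 17 µg/mL by stock and volumes)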. purified MbtI enzyme, fluorescence intensity read-out;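 active = above 50% in both replicates, above 80% if mildly self-fluorescent; inactive = the rest, strongly fluorescent compounds included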;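 note: 0% = mean of negative and 100% = mean of positive controls; one replicate is shown; some compounds called inactive have numbers as strong as hits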
Polio RdRp inh intensity: further read-out of Polio RdRp inh, marked with its call; % elongation; measured here: total intensity read-out; formula for this scale not given here;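 total fluorescence in place of polarization; lower means less elongation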
Active calls of the source: *; . = not tested or not shown; & = joins results of further samples.

SMILES	MenB inh	Polio RdRp inh	Polio RdRp inh intensity	Mtb MbtI inh
CC(C)(CNC(=O)Cc1ccccc1F)N1CCOCC1	-2	101	106	6
O=CNc1ccccc1Oc1c(F)c(F)c(F)c(F)c1F	-23	99	98	-14
CN(Cc1cccs1)S(=O)(=O)c1ccc(Cl)nc1	-4	102	107	-6
CCOC(=O)c1sc(N)c(C(=O)OCC)c1C	-5	79*	79*	.
O=C(CSC1=NCCS1)c1ccc(Cl)s1	-36	111	146	78
Cc1cccc(C(=O)Nc2ccc(N(C)C)cc2)c1	-13	101	100	1
COc1cc(C(=O)NCc2nc3ccccc3n2C(C)C)cc(OC)c1OC	-21	101	102	-11
Clc1ccc2c(N3CCNCC3)ccnc2c1	-15	104	103	9
COc1ccccc1CNc1nc(-c2cccnc2)nn1C(=O)c1cccnc1	-28	104	101	8
COc1ccc(CNC(=O)C2CC(O)CN2C(=O)Nc2ccccc2)cc1 (configuration not stated)	-17	105	103	-7
c1ccc(C2=NC2c2ccccc2)cc1 (configuration not stated)	-25	107	102	.
CCN(CC)C(=O)c1sc2nc3c(cc2c1N)C1CCN3CC1	-10	99	101	3
Cc1[nH]c2ccccc2c(=O)c1CN(C)C	-12	103	103	17
CN(C)C(=O)Nc1ccccc1	-4	105	107	-6
CN1C2CCC1CC(O)C2 (configuration not stated)	-10&-9	104&99	106&104	-12&-5
CCc1cccc(C(C)C)c1NS(=O)(=O)c1ccc(C)cc1	-21	101	98	-12
CC(=O)NC(=S)Nc1cccc(-c2nc3c(ccc4ccccc43)o2)c1	-18	101	104	-36
CCOC(=O)c1sc(N)c(C#N)c1CSc1nc2sc3c(c2c(=O)n1C)CCCC3	-9	43	240	4
N=C(N)SCc1nc(N)nc(N2CCCCC2)n1	-8	111	97	.
CCn1c(=O)cc(OCC(=O)N(C)c2ccccc2F)c2ccccc21	-5	101	105	4
O=C(c1cc(C2CC2)[nH]n1)N1CCN(c2cccc(C(F)(F)F)c2)CC1	2	100	100	3
Cc1ccc(NS(=O)(=O)c2ccccc2C(F)(F)F)cc1C	-2	101	100	-29
CC(C)(C)c1ccc(C(=O)n2cnnc2N)cc1	-1	99	104	.
CCOC(=O)c1[nH]cnc1C(=O)Nc1ccc(C)cc1	-18	101	99	31
c1nnc2c3c4c(sc3ncn12)CCC4	-1	102	101	-1

Entries above that have a carbonyl joined to an NH by a bond outside any ring:
SMILES	MenB inh	Polio RdRp inh	Polio RdRp inh intensity	Mtb MbtI inh
CC(C)(CNC(=O)Cc1ccccc1F)N1CCOCC1	-2	101	106	6
O=CNc1ccccc1Oc1c(F)c(F)c(F)c(F)c1F	-23	99	98	-14
Cc1cccc(C(=O)Nc2ccc(N(C)C)cc2)c1	-13	101	100	1
COc1cc(C(=O)NCc2nc3ccccc3n2C(C)C)cc(OC)c1OC	-21	101	102	-11
COc1ccc(CNC(=O)C2CC(O)CN2C(=O)Nc2ccccc2)cc1 (configuration not stated)	-17	105	103	-7
CN(C)C(=O)Nc1ccccc1	-4	105	107	-6
CC(=O)NC(=S)Nc1cccc(-c2nc3c(ccc4ccccc43)o2)c1	-18	101	104	-36
CCOC(=O)c1[nH]cnc1C(=O)Nc1ccc(C)cc1	-18	101	99	31

A second format for some results above:
CCc1cccc(C(C)C)c1NS(=O)(=O)c1ccc(C)cc1
  MenB inh = -21
  Polio RdRp inh = 101
  Polio RdRp inh intensity = 98
  Mtb MbtI inh = -12

CC(=O)NC(=S)Nc1cccc(-c2nc3c(ccc4ccccc43)o2)c1
  MenB inh = -18
  Polio RdRp inh = 101
  Polio RdRp inh intensity = 104
  Mtb MbtI inh = -36

Next part
SMILES	MenB inh	Polio RdRp inh	Polio RdRp inh intensity	Mtb MbtI inh
COC(CNC(=S)Nc1ccc(Cl)cc1)OC	-20	100	100	-3
Cc1cc(C)cc(NC(=O)CNCC(F)(F)F)c1	-10	92	97	-2
CN(CCO)Cc1ccc2c(c1)OCO2	10	102	101	-5
Cc1ccc(Nc2nc(C)cc(C)c2C#N)cc1	-17	102	103	-4
O=C(c1ccccc1)N1CCN(C(=O)c2ccc3c(c2)OCO3)CC1	10	102	108	0
N#CC(C1=NS(=O)(=O)c2ccccc21)c1nc2ccccc2n1Cc1ccccc1 (configuration not stated)	-14	103	110	-4
CCCN(CCC)C(=O)Cc1ccc(F)cc1	-19	102	103	-1
NS(=O)(=O)c1cc2c(cc1C(F)(F)F)NCNS2(=O)=O	5&3	99&100	103&101	100&61
O=C(CCCn1c(=O)c2sccc2n(Cc2ccc(F)cc2Cl)c1=O)NCc1ccco1	-7	101	102	-7
CSc1nnc(C2CCCN(CC(=O)NCc3cccs3)C2)n1C (configuration not stated)	-12	103	105	-8
Cc1ccc2c(c1)c1nc3ccccc3nc1n2Cc1ccccc1	-1	102	108	-9
CC(C)CC1NC(=O)N(Cc2ccc(CN3C(=O)NC(CC(C)C)C3=O)cc2)C1=O (configuration not stated)	-2	110	103	-10
CCSc1nc2c(c(=O)[nH]1)C(c1ccncc1)C(C(=O)OC)=C(C)N2 (configuration not stated)	-1	100	105	-68
CCC(=O)n1cnc2ccccc21	.	101	107	-7
COC(=O)Cn1c(SCc2ccccc2)nc2ccccc21	-15	99	101	-10
CCOc1ccc(NC(=O)Cc2cccc3c(S(=O)O)cccc23)cc1	-22	102	102	65*
CCn1ncc(C2=NOC(C(=O)N3CCCc4ccccc43)C2)c1C (configuration not stated)	6	102	102	-6
Cn1nc(C(=O)Nc2ccc3c(c2)OC2(CCCC2)O3)ccc1=O	-5	102	104	-3
CCOC(=O)c1ccc2[nH]c(C(=O)OCC)c(CCC(=O)O)c2c1	-10	104	112	7
CCOC(=O)c1oc2ccc(Br)cc2c1CSc1nnc(C(F)(F)F)n1C	10	107	96	26
CCc1ccccc1Nc1cc(C(=O)NCc2cccnc2)c2ccccc2n1	-20	106	107	5
COC(=O)CCN1C(=O)/C(=C\c2ccc(N(C)C)cc2)SC1=S	-9	75	194	6
CC1CCC(C#N)(N(C)C(=O)CSc2nc(C3CC3)n(-c3ccccc3)n2)CC1 (configuration not stated)	-25	105	111	-5
O=C(CSc1ccccn1)N1CCCc2ccccc21	4	101	101	.
O=c1cc(CN2CC(O)Cc3ccc4ccccc4c32)nc2sccn12 (configuration not stated)	-4	107	106	6

5 neighbouring records from above, for reference:
SMILES	MenB inh	Polio RdRp inh	Polio RdRp inh intensity	Mtb MbtI inh
COC(CNC(=S)Nc1ccc(Cl)cc1)OC	-20	100	100	-3
Cc1cc(C)cc(NC(=O)CNCC(F)(F)F)c1	-10	92	97	-2
CN(CCO)Cc1ccc2c(c1)OCO2	10	102	101	-5
Cc1ccc(Nc2nc(C)cc(C)c2C#N)cc1	-17	102	103	-4
O=C(c1ccccc1)N1CCN(C(=O)c2ccc3c(c2)OCO3)CC1	10	102	108	0

Other structures
SMILES	MenB inh	Polio RdRp inh	Polio RdRp inh intensity	Mtb MbtI inh
CC1=NCCCN1C(=O)c1c(-c2c(Cl)cccc2Cl)noc1C	8	100	102	-3
O=C(CSc1ccc2c(c1)OCCO2)N1CCc2ccccc21	2	104	109	-1
CCC(COc1nnnc2ccccc12)NC(=O)C1CCN(S(C)(=O)=O)CC1 (configuration not stated)	-21	105	99	-9
O=C(Nc1ccccc1)Oc1ccccc1	3	103	109	.
CCn1c(C)nc2cc(C(=O)O)ccc21	-27	103	101	2
Cc1sc2nc(SCC(=O)N(CCO)CCO)n(C3CCCCC3)c(=O)c2c1C	-12	103	104	-3
O=C(COC(=O)C1CCN(C(=O)Nc2ccccc2)CC1)Nc1ccc2c(c1)OCO2	-32	104	109	-6
Cc1cc(/C=N/N2CCOCC2)c(C)n1-c1cccc2ccccc12	2	99	101	33
CN(CC(=O)O)c1ncnc2sccc12	-20	107	113	5
CNC(=O)CCc1cn(Cc2ccccc2Cl)c2ccccc12	-34	107	106	-3
CCOC(=O)/C(=N/O)C1=NN=C(N)SC1	-20	105	108	2
COC(=O)c1ccc(COc2coc(CN3CCc4ccccc4C3)cc2=O)cc1	-10	104	104	-1
CCOc1cc2c(=O)[nH]c3c(C(=O)NCc4ccco4)sc(=S)n3c2cc1OCC	-4	99	97	87
Cc1nn(-c2ccccc2)nc1CNS(=O)(=O)c1ccc(-c2ccno2)s1	1	105	102	5
OC(CN1CCC(Cc2ccccc2)CC1)CN1CCN(c2cccc(C(F)(F)F)c2)CC1 (configuration not stated)	-12	105	103	-7
O=C(OC1=CC(=O)c2cccc3cccc1c23)c1ccccc1	-13	51	236	-22
CC(C)NC(=S)NN(c1ccccc1)c1ccccc1	-2	98	99	9
COc1cc(C(=O)NCc2ccc(OCCN(C)C)cc2)cc(OC)c1OC	-10&6	103&101	99&98	-5&-19
O=C(NC1CCCCC1NC(=O)c1ccccc1Cl)c1ccccc1Cl (configuration not stated)	-10	102	107	.
CCc1c(C)[nH]c(C(=O)OC(C)(C)C)c1C	-6	103	101	6
COC(=O)c1ccc(NC(=O)CSc2nnc3sc4ccccc4n23)cc1	1	101	100	19
O=C(Nc1nc2ccc(Br)cc2s1)c1cc2ccccc2o1	5	106	105	-64
O=C(NCc1ccco1)c1cc(S(=O)(=O)NCc2ccco2)c[nH]1	-13	96	99	7
O=C(Nn1cnnc1)c1ccc(OC(F)(F)C(F)C(F)(F)F)cc1 (configuration not stated)	13	106	100	6
O=C(CSc1nnc(CNC(=O)c2ccco2)o1)NCc1ccc2c(c1)OCO2	-5	100	103	-7

Later entries
SMILES	MenB inh	Polio RdRp inh	Polio RdRp inh intensity	Mtb MbtI inh
CS(=O)(=O)c1ccc(Cl)c(NC(=O)c2ccc3c(=O)n4c(nc3c2)CCC4)c1	-1	98	105	-7
O=C1c2ccccc2C(=O)N1CSc1nnc(Cc2cccs2)n1CCc1ccccc1	-11	99	102	3
CC(C)(C)c1ccc(C(=O)OCCN2CCCC2=O)cc1	.	101	101	-4
Cc1ccc(CN(C)C(=O)c2ccc(N3C(=O)c4ccccc4C3=O)cc2)o1	-29	100	109	-14
Cc1cc[n+](CCOc2ccc(N)cc2)cc1	-7	100	103	.
O=C(NCC1CCCO1)c1ccc2c(c1)N(Cc1ccc(F)cc1)C(=O)/C(=C/c1ccccc1)S2 (configuration not stated)	-1	104	99	2
Cc1nn(-c2ccccc2)c2[nH]c(=O)c(C#N)c(-c3cccs3)c12	10	102	103	-6
CN1CCN(S(=O)(=O)c2cccc(S(=O)(=O)c3ccc(Cl)c(Cl)c3)c2)CC1	-18	102	102	4
O=C(Nc1cccc(NC(=O)C2COc3ccccc3O2)c1)c1ccccc1 (configuration not stated)	-9	103	103	-4
Cc1ccccc1C(=O)N(C)Cc1ccccc1	-8	99	103	0
COc1ccc(NC(=O)CC(=O)c2ccccc2)cc1	-94	105	98	.
O=S(=O)(Nc1ccccn1)c1ccc(Oc2ccccc2)cc1	2	102	104	-5
C/C(=N\N=C(N)N)c1ccc(-n2ccnc2)cc1	-13	98	108	7
CC1(C)Cc2ccccc2C(Nc2ccc(S(N)(=O)=O)cc2)=N1	-34	101	102	1
Cc1ccc(SCC(=O)N2CC(=O)Nc3ccccc32)cc1	-41	106	99	-5
CCOC(=O)C1(c2ccccc2)NC(c2ccc(O)c(OC)c2)C2C(=O)N(C)C(=O)C21 (configuration not stated)	12	103	104	-3
COc1cccc(C(=O)CCN2CCC(c3ccccc3)C2)c1 (configuration not stated)	13	98	99	81
Cc1ccc(C(=O)NC2CC2)cc1N1CCCC1=O	7	102	108	-13
NC(=O)CSc1nc2c(sc3ccccc32)c(=O)n1-c1ccccc1	-12	104	104	21
Cc1nc(SCc2nnc(-c3ccccc3)o2)c(C(N)=O)c(C)c1C	0	108	111	89
COc1cccc(NC(=O)N2C3CCC2CC(O)(c2cccnc2)C3)c1 (configuration not stated)	-36	102	104	-8
CCSC(=S)NC1CCS(=O)(=O)C1 (configuration not stated)	2	100	100	6
O=C(CSc1ncccn1)N1CCN(C(=O)c2ccco2)CC1	-44	104	96	-3
COc1ccc(-c2noc(CN(C(=O)C(C)(C)C)C(C)C)n2)cc1	14	99	103	-2
CCC(C#CCN1CCOCC1)OC(C)=O (configuration not stated)	10	109	113	.
CCn1c(C)nc2cc(C(=O)N=Nc3c(O)[nH]c4ccccc34)ccc21	-33	99	90	-21
O=C(O)CSCC(=O)N1CCN(c2ncccn2)CC1	6	103	99	-24
